ClpP mod – qHTS Assay for Activators of ClpP; ATP-dependent Clp protease proteolytic subunit (Bacillus subtilis (strain 168)), P80244; AID 651965, 2013; Potency, µM (highest dose often 57.5 µM), for the others: at the highest dose activity change, negative = active; purified B. subtilis ClpP, FRET peptide cleavage, 20 min; actives 1.9% (n = 340,000); active = well fitted falling curve with a large enough effect; inconclusive = small, poorly fitted or top-dose-only effect; inactive = no such curve, though single readings can be large or run the other way; also: potency is read from the fitted curve at half-maximal effect; the source files actives as falling curves though it sought activators and does not explain the sign; nearly all actives have a fitted effect of over 65% in size; many hits overshoot -100%
Target sequence (P80244 whole entry, looked up): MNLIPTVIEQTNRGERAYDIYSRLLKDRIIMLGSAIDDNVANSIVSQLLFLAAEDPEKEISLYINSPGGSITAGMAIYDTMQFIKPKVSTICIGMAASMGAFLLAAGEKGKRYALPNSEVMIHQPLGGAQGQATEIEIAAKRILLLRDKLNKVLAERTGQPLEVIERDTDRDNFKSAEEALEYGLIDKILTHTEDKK
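Buffer: 100 mM Tris/HCl pH8, 100 mM KCl, 0.05% low protease BSA, 2.5% glycerol, 0.01% Tween-20. ClpP 10 microg/mL final; 20 min RT; delta FRET normalized to ADEP and DMSO controls.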
TRPML1 blocker – inhibitors of human TRPML1 channel. TRPML1-inducible cells, Ca2+ dye fluorescence, FDSS; hits give low values; inhibition of EC80 agonist-evoked calcium signal. Q9GZU1. AID 624415. actives 0.02% (n = 390,000). activity change, negative = inhibition, % (no concentration beside the values); in the data active means activity change below about -50%; inconclusive means about -30% to -50%; inactive means above about -30%;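 also: stimulus is agonist 54-4 at its EC80 concentration; % is scaled to controls: 0 for no effect and ±100 for the full control effect; compound concentration not given in the record; the text of the record puts the active cut at -80%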
Target sequence (Q9GZU1 whole entry, looked up): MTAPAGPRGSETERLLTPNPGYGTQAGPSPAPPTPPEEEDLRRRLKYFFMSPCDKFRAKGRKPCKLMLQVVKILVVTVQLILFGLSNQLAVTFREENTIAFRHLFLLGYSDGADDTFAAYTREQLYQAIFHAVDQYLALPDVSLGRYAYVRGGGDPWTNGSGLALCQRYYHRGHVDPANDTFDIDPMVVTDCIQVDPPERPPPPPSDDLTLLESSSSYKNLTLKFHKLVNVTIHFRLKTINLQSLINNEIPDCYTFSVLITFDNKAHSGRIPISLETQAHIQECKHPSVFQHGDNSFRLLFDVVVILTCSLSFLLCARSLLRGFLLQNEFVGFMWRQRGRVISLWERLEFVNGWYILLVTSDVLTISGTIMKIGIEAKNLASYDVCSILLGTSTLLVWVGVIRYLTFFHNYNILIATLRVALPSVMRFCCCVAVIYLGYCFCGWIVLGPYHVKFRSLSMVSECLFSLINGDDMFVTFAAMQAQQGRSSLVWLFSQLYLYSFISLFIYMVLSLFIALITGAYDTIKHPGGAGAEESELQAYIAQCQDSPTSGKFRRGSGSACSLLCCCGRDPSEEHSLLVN
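TRPML1-DL cells, Tet-induced overnight (~16 h, 37 °C) at 1,500 cells/well, were loaded with Ca8 no-wash dye plus quencher for 45-90 min at room temperature. Compounds were pinned during FDSS kinetic reading; agonist 54-4 at EC80 (4 uM final) then added.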
gsp agonist – gsp mutant agonism; actives 0.13% (n = 340,000); Potency, µM (top dose mostly 76.9 µM), for inactives: at the top dose activation (cAMP increase), actives largely listed as activators; AID 624287; gsp mutant cells, cAMP HTRF, 30 min; control for the full effect not named in the record; active = well fitted activation curve with a large enough effect; inconclusive = small, poorly fitted or top-dose-only effect, or another doubt; inactive = no such curve, though single readings can be large or run the other way; cell line not stated here;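 also: phosphodiesterase inhibitor Ro 20-1724 added with compounds to block cAMP breakdown; potency is read from the fitted curve at half-maximal effect; nearly all actives have a fitted effect of over 60% in size; about a fifth of the inactives were tested at one dose only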
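Cells stably selected in G418 were plated at 2000/well, grown 16-24 hr, then given compounds in DMSO with the PDE inhibitor […] (300 uM solution added) for 30 min at 37C; cAMP was read by HTRF.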
TRPV1 potentiator – potentiators of human vanilloid receptor 1 (TRPV1). TRPV1-expressing cells, Fluo-8 calcium influx, capsaicin EC20 potentiation; host cell line not named in the record; control for the full effect not named in the record. Q8NER1. AID 540277. potentiation, % at 8.33 µM. actives 0.02% (n = 320,000); active means potentiation above 80%; inconclusive means 30% to 80%; inactive means below 30%; also: 0% is about no effect
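Fluo-8 calcium influx in TRPV1-expressing cells, kinetic read (ex 480/em 520 nm). Compound added and read 3 min for agonist activity, followed by capsaicin at EC20 final and 2 min further read for enhancement.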
Sfp PPTase inh – inhibitors of Bacillus subtilis Sfp phosphopantetheinyl transferase. actives 3.5% (n = 310,000). Q9F4F7. Biochemical Sfp PPTase activity, qHTS. Potency, µM, for the others: max response, negative = inhibition, most hits filed as inhibitors; active = well fitted inhibition curve with a large enough effect; inconclusive = small, poorly fitted or top-dose-only effect, or another doubt; inactive = no such curve, though single readings can be large or run the other way;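 also: the enzyme is Sfp with the accession as filed and its product quenches rhodamine fluorescence; potency is read from the fitted curve at half-maximal effect; 0% = enzyme reaction without inhibitor and -100% = no enzyme wells; top concentration of the series not given in the record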
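Compounds were incubated with enzyme (final 15 nM) for 15 min at room temperature before substrate addition started the reaction. Fluorescence at 525 nm excitation, 598 nm emission was recorded immediately and after 30 minutes.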
Menin-MLL FL inh – menin-MLL binding inhibition, fluorescein peptide | 290,000 tested, under 10 active | FP activity change, % at 61.4 µM | Fluorescence polarization, fluorescein-MLL peptide displacement from menin | AID 1766; inconclusive = falling polarisation curve, or a change in total fluorescence; inactive = total fluorescence flat and polarisation flat or rising; no compound was filed as active; the % refers to the polarisation; negative = inhibition;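 also: % of control where 0% means no effect; inhibitors lower the polarisation; unlabelled MLL peptide was the positive control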
gsp antagonist – gsp mutant antagonism | gsp-mutant cells, cAMP HTRF, 30 min; control for the full effect not named in the record | Potency, µM (doses to about 76.9 µM), without a hit: top-dose activity change, negative = inhibition, most hits filed as inhibitors | actives 0.4% (n = 340,000) | AID 624288; active = falling curve of any shape with a large fitted effect; inconclusive = falling curve, mostly with a smaller effect; inactive = flat or rising curve; cell line not stated here;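 also: intracellular cAMP measured with PDE inhibitor Ro 20-1724 present during compound exposure; potency is read from the fitted curve at half-maximal effect; % is scaled to controls: 0 for no effect and ±100 for the full control effect; nearly all actives have a fitted effect of over 65% in size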
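G418-selected cells were plated in DMEM/10% FBS for 16-24 h at 37C, then treated with compounds plus the PDE inhibitor […] (300 uM solution added) for 30 min at 37C. Intracellular cAMP was measured by HTRF after 30 min lysis at room temperature.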
Starred values were filed as active, the others as inactive; & = joins results of further samples; [ ] = another dose, or the depositor's remark.

For CCN(CC)P(=O)(Nc1cccc(C(F)(F)F)c1)c1ccc(N(C)C)cc1NC(=O)c1ccco1 (stereo not given) the results were ClpP mod inconclusive, TRPML1 blocker -1, gsp agonist -1%, TRPV1 potentiator 4, Sfp PPTase inh 16%, Menin-MLL FL inh 12 and gsp antagonist -10%.
`CC1CN(C(=O)c2ccc(-c3cccc(C(F)(F)F)c3)o2)CC(C)O1` (stereo not given) gave ClpP mod -5.6%, TRPML1 blocker -10, gsp agonist 7%[15.4 µM], TRPV1 potentiator -7 and gsp antagonist -1%.
COc1ccc2nc(-c3ccccc3)cc(C(=O)N3CCC3)c2c1 was read as ClpP mod 4.6%, TRPML1 blocker -10, gsp agonist -15%, TRPV1 potentiator -2 and gsp antagonist -17%.
For C=CCNC(=O)N1C2=NC(C(=O)OC)=C(C(=O)OC)[C@@H]3N(Cc4ccccc4)c4ccccc4[C@]23C[C@H]1C(=O)OC the results were ClpP mod 1.3%, TRPML1 blocker -2, gsp agonist 24% and gsp antagonist -4%.
CCOc1ccc(NC(=O)CN(C)CC(=O)Nc2ccc(Br)cc2F)cc1OCC was read as ClpP mod -0.1%, TRPML1 blocker 11, gsp agonist -9%[15.4 µM], TRPV1 potentiator -7, Sfp PPTase inh -2%, Menin-MLL FL inh -0.8 and gsp antagonist -35%.
Screening NNc1cccc(C=Cc2ccccc2)cc1=O returned ClpP mod -7.2%, TRPML1 blocker 6, gsp agonist -5% and gsp antagonist 2%.
Screening O=C(NCCCN1CCOCC1)c1ccc2ccccc2c1 returned ClpP mod -15%, TRPML1 blocker 3, gsp agonist 17%[15.4 µM], TRPV1 potentiator -4 and gsp antagonist -2%.
Screening O=C(CSc1ccccn1)N1CCN(c2cccc(Cl)c2)CC1 returned ClpP mod 1.2%, TRPML1 blocker -17, gsp agonist -14%, TRPV1 potentiator inconclusive, Sfp PPTase inh 50µM*, Menin-MLL FL inh -0.7 and gsp antagonist -4%.
CC(=NCCc1ccccc1)C1=C(O)COC1=O was read as ClpP mod 3.1%, TRPML1 blocker -11, gsp agonist 13%, TRPV1 potentiator -4, Sfp PPTase inh 21%, Menin-MLL FL inh 0.9 and gsp antagonist -11%.
Screening CCc1ccc(NC(=O)C2CCCN(S(=O)(=O)c3ccc4[nH]c(=O)ccc4c3)C2)cc1 (stereo not given) returned ClpP mod -7.1%&-6.0%, TRPML1 blocker 4&-12, gsp agonist 30%, TRPV1 potentiator -3, Sfp PPTase inh 6%, Menin-MLL FL inh 6.5 and gsp antagonist 6%.
For CCOC(=O)C1(Cc2cccc(Cl)c2)CCCN(C(=O)c2ccnn2C)C1 (stereo not given) the results were ClpP mod -8.6%, TRPML1 blocker 23, gsp agonist -12%, TRPV1 potentiator -6, Sfp PPTase inh 0% and gsp antagonist -19%.
Fc1ccc(NC(=S)N2CCc3[nH]c4ccccc4c3C2)cc1 was read as ClpP mod 0.5%, TRPML1 blocker -7, gsp agonist -22%, TRPV1 potentiator -21, Sfp PPTase inh 2%, Menin-MLL FL inh 1.6 and gsp antagonist 4%.

2 compounds picked at random from those above:
Screening O=C(NCCCN1CCOCC1)c1ccc2ccccc2c1 returned ClpP mod -15%, TRPML1 blocker 3, gsp agonist 17%[15.4 µM], TRPV1 potentiator -4 and gsp antagonist -2%.
Fc1ccc(NC(=S)N2CCc3[nH]c4ccccc4c3C2)cc1 was read as ClpP mod 0.5%, TRPML1 blocker -7, gsp agonist -22%, TRPV1 potentiator -21, Sfp PPTase inh 2%, Menin-MLL FL inh 1.6 and gsp antagonist 4%.

Later entries.
`CCOc1cc(C(=S)N2CCCC2)ccc1OCC(=O)Nc1c(C)cc(C)cc1C` gave ClpP mod 0.7%, TRPML1 blocker 6, gsp agonist -20%, TRPV1 potentiator 11, Sfp PPTase inh 12%, Menin-MLL FL inh -1.0 and gsp antagonist -12%.
`CCCn1c(=C(C#N)C#N)s/c(=C2\C=Cc3ccccc3N2CC)c1=O` gave ClpP mod -0.6%, TRPML1 blocker 13, gsp agonist -7%, TRPV1 potentiator -12, Sfp PPTase inh 20%, Menin-MLL FL inh inconclusive and gsp antagonist 3%.
For Cn1ccnc1C(OC(=O)c1ccccc1)C(F)(F)F (stereo not given) the results were ClpP mod 2.9%, TRPML1 blocker -10, gsp agonist inconclusive, TRPV1 potentiator -1, Sfp PPTase inh 7%, Menin-MLL FL inh 0.2 and gsp antagonist 11%.
`Cn1c(=O)n(C)c2cc(NS(=O)(=O)c3ccc(Cl)s3)ccc21` gave TRPML1 blocker 29, gsp agonist 14%, TRPV1 potentiator 3, Sfp PPTase inh 8%, Menin-MLL FL inh -6.2 and gsp antagonist 5%.
`O=C(NCCCc1ccccc1)c1cccc(NC(=O)C2CCC2)c1` gave ClpP mod 1.4%, TRPML1 blocker -17 and gsp antagonist 10%.
CCc1ccccc1NC(=O)CCCN1C(=O)C2CC=CCC2C1=O (stereo not given) was read as ClpP mod 1.4%, TRPML1 blocker 10, gsp agonist -42%, TRPV1 potentiator 0, Sfp PPTase inh 7% and gsp antagonist 10%.
O=C(Cn1c(C(=O)NCCCN2CCOCC2)cc2sccc21)c1ccccc1 was read as ClpP mod -4.7%, TRPML1 blocker -2, gsp agonist -9%, TRPV1 potentiator -10, Sfp PPTase inh 4%, Menin-MLL FL inh 9.7 and gsp antagonist -1%.
CN1CCN(CCCNC(=O)c2ccc3c(c2)N(Cc2ccccc2)CCS3)CC1 was read as ClpP mod 3.9%, TRPML1 blocker -16, gsp agonist 20%, TRPV1 potentiator -19, Sfp PPTase inh -15%, Menin-MLL FL inh 1.2 and gsp antagonist 6%.
For COc1ccc(CCn2c(C(C)C)nc3c(c(=O)c4ccccc4n3C)c2=O)cc1 the results were ClpP mod 0.8%, TRPML1 blocker 6, gsp agonist inconclusive, TRPV1 potentiator -9, Sfp PPTase inh 4% and gsp antagonist inconclusive.
Screening CCOc1cc(CNCCO)c(Cl)cc1OCC(=O)NCCc1ccccc1 returned ClpP mod -1.2%, TRPML1 blocker -1, gsp agonist -6%, TRPV1 potentiator 7, Sfp PPTase inh 2%, Menin-MLL FL inh 1.2 and gsp antagonist 13%.
`NC(=O)C1CCN(CC(=O)Nc2ccc3c(c2)OCCO3)CC1` gave ClpP mod -1.8%, TRPML1 blocker 6, gsp agonist 6% and gsp antagonist 9%.
`CC(C)(C)NC(=O)C(OC(=O)c1ccco1)c1ccc(Cl)cc1` (stereo not given) gave ClpP mod 0.6%, gsp agonist -31%[inhibitor], TRPV1 potentiator -5, Sfp PPTase inh 9%, Menin-MLL FL inh -1.4 and gsp antagonist 6%.
Screening CCCCn1c(SCC(N)=O)nc2ccc(N3CCOCC3)cc2c1=O returned ClpP mod -23%, TRPML1 blocker -4, gsp agonist 26%, Sfp PPTase inh inconclusive, Menin-MLL FL inh 4.3 and gsp antagonist -3%.
`CC(C)CCn1c(S(=O)(=O)O)nc2ccccc21` gave ClpP mod -25%, TRPML1 blocker -4, gsp agonist 0%, TRPV1 potentiator 4, Sfp PPTase inh 13%, Menin-MLL FL inh 3.9 and gsp antagonist -13%.
Screening CC1(C)CC2CC(C)(CN2/C=C2/CCCCC2=O)C1 (stereo not given) returned TRPML1 blocker 4, gsp agonist -2%[15.4 µM], TRPV1 potentiator -9, Sfp PPTase inh 15%, Menin-MLL FL inh 1.8 and gsp antagonist 0%.
COc1ccc(NC(=S)Nc2ccccc2F)c(OC)c1 was read as ClpP mod 1.4%, TRPML1 blocker 66, gsp agonist 8%, Sfp PPTase inh -23%, Menin-MLL FL inh 0.0 and gsp antagonist -2%.
Screening Cc1cccc(C)c1N1C(=O)CC(Sc2ccccc2N)C1=O (stereo not given) returned ClpP mod 2.3%, TRPML1 blocker -21 and gsp agonist 5%.
For COc1c(S(=O)(=O)N2CCN(c3ccc(F)cc3)CC2)ccc(Cl)c1Cl the results were ClpP mod -0.1%, TRPML1 blocker 4, gsp agonist 20%, TRPV1 potentiator 10, Sfp PPTase inh 18%, Menin-MLL FL inh 1.3 and gsp antagonist -4%.
For Cc1cc2c(cc1S(=O)(=O)Nc1c(C)cccc1C)n(C)c(=O)c(=O)n2C the results were ClpP mod -12%, TRPML1 blocker -1, gsp agonist 4%, TRPV1 potentiator -2, Sfp PPTase inh 17%, Menin-MLL FL inh -1.6 and gsp antagonist inconclusive.
`COCCN1C(=O)c2oc3ccccc3c(=O)c2C1c1cccc(O)c1` (stereo not given) gave ClpP mod 2.0%, TRPML1 blocker 38, gsp agonist inconclusive, Sfp PPTase inh 12%, Menin-MLL FL inh 1.6 and gsp antagonist -1%.
Cc1nc2nc(SCC(=O)O)nn2c(C)c1Cc1c(F)cccc1Cl was read as ClpP mod -6.8%&-6.4%, TRPML1 blocker 10&7, gsp agonist 16%, TRPV1 potentiator -4, Sfp PPTase inh 12%, Menin-MLL FL inh -0.1 and gsp antagonist -12%.
Cc1cccc(NC(=O)NCCc2c[nH]c3ccccc23)c1 was read as ClpP mod -5.3%, TRPML1 blocker 28, gsp agonist -16%, TRPV1 potentiator -7, Sfp PPTase inh 22%, Menin-MLL FL inh 0.8 and gsp antagonist -12%.
CC(C)n1nccc1NS(=O)(=O)c1ccccc1 was read as ClpP mod -1.6%, TRPML1 blocker -13, gsp agonist -31%[inhibitor], TRPV1 potentiator 5 and gsp antagonist 10%.
Screening CCN1CCC2(CC1)C(C#N)=C(N)Oc1c2sc2nc(C)cc(C)c12 returned ClpP mod -2.3%, TRPML1 blocker -17, gsp agonist -6%, TRPV1 potentiator 17, Sfp PPTase inh 50µM*, Menin-MLL FL inh inconclusive and gsp antagonist 5%.
`CCCc1[nH]nc2c1C(/C(C)=C/c1ccccc1)C(C#N)=C(N)O2` (stereo not given) gave ClpP mod -0.2%, TRPML1 blocker 4, gsp agonist 7%, TRPV1 potentiator -5, Sfp PPTase inh 8%, Menin-MLL FL inh 0.1 and gsp antagonist -36%.

Compound activity: PubChem, National Center for Advancing Translational Sciences (NCATS)
